EPAC1 antagonist: antagonists of human EPAC1. O95398. EPAC1 GEF assay, Rap1b-BODIPY-GDP exchange fluorescence. Potency, µM (doses to about 115 µM), inactives show top-dose activity change, negative = inhibition, actives largely listed as inhibitors. 360,000 compounds, 0.14% hits;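 also: potency is read from the fitted curve at half-maximal effect; plate controls were vehicle for no effect and positive control for full effect; nearly all actives have a fitted effect of over 50% in size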
EPAC2 antagonist: blocks human EPAC2 exchange factor. Q8WZA2. EPAC2 GEF exchange of Rap1B-BODIPY-GDP, fluorescence. Potency, µM (top dose mostly 114 µM), inactives show at the highest dose activity, negative = inhibition, actives largely listed as inhibitors. 360,000 compounds, 0.18% hits; also: potency is read from the fitted curve at half-maximal effect; % is scaled to controls: 0 for no effect and ±100 for the full control effect; nearly all actives have a fitted effect of over 45% in size; many of its hits are not listed in these tables
CCT chaperon mod: cytosolic chaperonin activity modulation. purified chaperonin ATPase assay, HTRF ADP detection, 30 min. activity change, % (no concentration beside the values), hits read low. 360,000 compounds, 0.3% hits. AID 651819; in the data active = activity change below about -30%; also: % is scaled to controls: 0 for no effect and ±100 for the full control effect
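TRiC (40 or 20 nM final, by batch activity) in 30 mM Tris pH 7.4, 100 mM KCl, 5 mM MgCl2, 1 mM DTT was treated with compound at 76 uM single dose, then 10 uM ATP, 30 min at 37 °C. ADP was read by HTRF Transcreener.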
EPAC1 agonist: EPAC1 (human) agonism. EPAC1 agonist qHTS, biochemical assay; response scale: 100% = response to 6.5 mM cAMP. Potency, µM (top dose mostly 154 µM), without a hit: top-dose activation, actives largely listed as activators. 360,000 compounds, 0.073% hits. O95398; also: potency is read from the fitted curve at half-maximal effect; nearly all actives have a fitted effect of over 60% in size
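Nucleotide exchange by EPAC1 (100 nM) on Rap1B–BODIPY-GDP (250 nM) in the presence of 50 uM GDP is tracked fluorescently at 480/540 nm over 30 min. Signals are normalized to a 6.5 mM cAMP control.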
MmCpn inh: blocks the Methanococcus maripaludis chaperonin Mm-Cpn; purified Mm-Cpn ATPase, ADP Transcreener TR-FRET; Potency, µM (titrated, usually from 76.9 µM), without a hit: top-dose activity, negative = inhibition, actives largely listed as inhibitors; 330,000 compounds, 0.031% hits; also: potency is read from the fitted curve at half-maximal effect; % is scaled to controls: 0 for no effect and ±100 for the full control effect; nearly all actives have a fitted effect of over 80% in size
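Quantitative HTS used 25 nM Mm-CPN and 10 uM ATP in magnesium/KCl Tris buffer, pH 7.4, with 1 mM DTT. Hydrolysis ran 30 min at 37°C; ADP was read by HTRF.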
PLK1 PBD inh: blocks phosphopeptide binding to human PLK1 polo-box domain; P53350; Plk1 PBD binding of FITC phosphopeptide, fluorescence polarization; Potency, µM, for inactives: max response, negative = inhibition, usual class: inhibitors; 360,000 compounds, 2.8% hits; also: potency is read from the fitted curve at half-maximal effect; series mostly up to about 57 µM; % is scaled to controls: 0 for no effect and ±100 for the full control effect; nearly all actives have a fitted effect of over 65% in size
WRN inhibitor: blocks human WRN helicase. Q14191. WRN helicase unwinding, fluorescent forked duplex, kinetic. Potency, µM (series often up to 114 µM), for inactives: at the highest dose activity change, negative = inhibition, usual class: inhibitors. 360,000 compounds, 0.46% hits. AID 651768; also: potency is read from the fitted curve at half-maximal effect; % is scaled to controls: 0 for no effect and ±100 for the full control effect; nearly all actives have a fitted effect of over 55% in size
Target sequence (Q14191 whole entry, looked up): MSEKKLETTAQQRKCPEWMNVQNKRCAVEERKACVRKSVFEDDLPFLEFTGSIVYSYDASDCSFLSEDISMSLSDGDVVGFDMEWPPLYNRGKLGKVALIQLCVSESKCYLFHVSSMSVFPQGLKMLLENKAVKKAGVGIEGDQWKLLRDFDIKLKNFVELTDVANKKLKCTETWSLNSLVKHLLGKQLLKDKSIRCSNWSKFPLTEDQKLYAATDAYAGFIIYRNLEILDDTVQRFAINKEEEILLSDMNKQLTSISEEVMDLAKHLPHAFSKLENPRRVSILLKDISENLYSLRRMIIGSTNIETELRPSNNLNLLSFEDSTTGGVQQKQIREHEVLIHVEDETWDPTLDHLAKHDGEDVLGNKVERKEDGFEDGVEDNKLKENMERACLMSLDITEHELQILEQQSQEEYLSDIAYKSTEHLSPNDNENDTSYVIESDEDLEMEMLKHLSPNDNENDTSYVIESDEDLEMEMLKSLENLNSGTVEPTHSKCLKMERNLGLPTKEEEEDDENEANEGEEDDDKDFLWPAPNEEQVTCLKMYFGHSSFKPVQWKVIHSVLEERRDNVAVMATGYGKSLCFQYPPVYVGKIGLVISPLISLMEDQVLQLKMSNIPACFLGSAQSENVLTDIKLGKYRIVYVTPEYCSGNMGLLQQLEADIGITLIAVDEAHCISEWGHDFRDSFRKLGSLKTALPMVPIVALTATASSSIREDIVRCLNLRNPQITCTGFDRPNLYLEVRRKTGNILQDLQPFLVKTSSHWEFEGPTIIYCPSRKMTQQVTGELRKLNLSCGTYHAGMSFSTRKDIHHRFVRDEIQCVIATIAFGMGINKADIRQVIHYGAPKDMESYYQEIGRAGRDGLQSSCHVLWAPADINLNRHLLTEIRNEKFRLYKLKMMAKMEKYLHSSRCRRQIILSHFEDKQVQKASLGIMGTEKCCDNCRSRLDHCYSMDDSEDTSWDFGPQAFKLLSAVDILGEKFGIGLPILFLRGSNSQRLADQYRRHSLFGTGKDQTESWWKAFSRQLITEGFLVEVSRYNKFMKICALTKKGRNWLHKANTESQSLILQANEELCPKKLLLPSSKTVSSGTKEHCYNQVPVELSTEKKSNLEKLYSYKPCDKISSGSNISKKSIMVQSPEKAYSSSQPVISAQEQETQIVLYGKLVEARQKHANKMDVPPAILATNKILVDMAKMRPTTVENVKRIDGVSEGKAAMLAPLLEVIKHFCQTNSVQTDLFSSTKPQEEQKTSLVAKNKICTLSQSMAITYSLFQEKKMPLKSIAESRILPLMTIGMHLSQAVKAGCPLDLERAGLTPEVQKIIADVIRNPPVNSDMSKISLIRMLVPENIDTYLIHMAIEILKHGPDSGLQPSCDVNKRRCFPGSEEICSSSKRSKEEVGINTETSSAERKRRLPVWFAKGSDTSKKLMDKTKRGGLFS
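WRN at 20 nM final preincubated with compound 15 min at room temperature; reaction started with 100 nM fluorophore/quencher forked duplex oligonucleotide and 2 mM ATP final. Unwinding followed kinetically by red fluorescence (ex 525, em 598 nm).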
* marks the source's active call; other numbers are inactive results; ? = inconclusive; · = not tested or not shown; & = joins results of further samples; [ ] = dose if it differs, or a comment. Unless noted, calls follow the shape of the dose curve; as a rule, active = well fitted curve in the direction sought with a large enough effect; inconclusive = small, poorly fitted or top-dose-only effect, or another doubt; inactive = no such curve, though single readings can be large; an effect the other way counts as inactive or inconclusive.

item	compound	EPAC1 antagonist	EPAC2 antagonist	CCT chaperon mod	EPAC1 agonist	MmCpn inh	PLK1 PBD inh	WRN inhibitor
1	Cc1ccc(N2CC(C(=O)NC3=NCCS3)CC2=O)cc1C (stereo unspecified)	-4%	-1%	-2.4	8%	1%	-13%	8%
2	CC(C)c1ccc(CCNC(=O)CCNC(=O)c2ccc(Br)cc2)cc1	4%	8%	2.8	6%	2%	-6%	-3%
3	COCCn1c(=NC(=O)CSCC(=O)N2CCOCC2)sc2ccccc21	5%	13%	-1.8	1%	1%	-6%	-9%
4	Cc1ccc(-n2nc(-c3ccco3)cc2C(=O)NCc2cccnc2)cc1	-7%	11%	0.6	-1%	-2%	9.5µM*	-20%[57.1 µM]
5	O=C1Nc2ccccc2-n2nnnc2C1N1CCN(C(=O)c2ccco2)CC1 (stereo unspecified)	-3%	20%	·	26%	·	-13%	2%
6	O=C(COc1ccc(-c2nnco2)cc1)Nc1c(F)cccc1F	-1%	5%	-2.0	6%	1%	4%	-6%
7	O=C(CSCc1ccccc1Br)N/N=C/c1ccc(OCC(=O)N2CCCCC2)cc1	-7%	-2%	-0.7	3%	2%	3%	-6%
8	NC(=O)c1ccc(NC(=O)Cc2cccs2)cc1	-4%	5%	1.7	-7%	-5%	-12%	-8%[11.6 µM]
9	Cc1ccc(S(=O)(=O)CCSc2cccc(C(=O)O)c2)cc1	20%	-7%	0.3	10%	-2%	?	-4%
10	CN(C)/C=C(\C#N)C(=O)N/N=C(\CC(=O)C(F)(F)F)c1ccco1	4%	6%	-0.4	-2%	-6%	-15%	-2%
11	NC(=O)C(c1ccc(Sc2ccccc2)nn1)c1ccc(Cl)cc1Cl (stereo unspecified)	-23%	-7%	-0.9	2%	1%	-10%	-5%
12	COc1ccc(NC(=O)CSc2nnc(-c3cccs3)n2C)cc1OC	2%	-6%	2.6	5%	-23%	-2%	-10%
13	CCOC(=O)c1c(NC(=O)Cn2nc(C(=O)O)c3ccccc3c2=O)sc2c1CCC(C)C2 (stereo unspecified)	-15%	6%	-1.6	-1%	1%	-10%&-9%	1%
14	Cc1ccc(C)c(Nc2nc3ccc(C)cc3n3cnnc23)c1	-8%	16%	-1.1	7%	0%	2%	2%
15	Cc1cc(C)cc(NC(=O)c2ccc(S(=O)(=O)N(C)CC3CCCO3)cc2)c1 (stereo unspecified)	-7%	-1%	-1.6	29%	-1%	-1%	-14%
16	CC(Oc1ccccc1)C(=O)Nc1nc(-c2ccccn2)cs1 (stereo unspecified)	-12%	-7%	4.9	5%	1%	-25%	-19%
17	O=C(CSc1nncc2ccccc12)Nc1ccccc1	-8%	-1%	-5.7	15%	-1%	-8%	2%[57.1 µM]
18	COCCc1nc2ccc(C(=O)NCc3cccc(-n4cccn4)c3)cc2o1	3%	2%	1.5	3%	-1%	?	-21%
19	O=C(COC(=O)c1ccc(Br)o1)Nc1nc2c(F)c(F)c(F)cc2s1	0%	4%	-0.6	1%	-12%	-26%	-15%
20	COC(=O)Cc1nnc(SCC(=O)Nc2ccccc2)c2ccccc12	-20%	-5%	-5.0	-4%	-17%	-1%	0%
21	CN1CCN(C(=O)/C=C/c2ccc(Cl)cc2)CC1	-15%	1%	-0.3	12%	3%	-11%	-33%
22	COCCn1c(=O)[nH]c2cc(C(=O)NCCN3CCN(c4ccccc4F)CC3)ccc2c1=O	-1%	0%	-3.3	-5%	0%	-7%	-3%
23	CCOC(=O)N1CCN(C(=O)c2ccc3c(=O)n(CCC4=CCCCC4)c(=O)[nH]c3c2)CC1	-4%	-4%	-1.8	-11%	2%	-10%	4%
24	CN(CC(=O)Nc1cccc(F)c1)C(=O)c1cn2ccccc2n1	-23%	10%	0.1	11%	0%	-12%	1%
25	CC(C)(C)Cc1nnc(NC(=O)Cc2cccs2)s1	-26%	-1%	-1.7	5%	-2%	19µM*	-7%[11.6 µM]
26	O=C(Nc1ccc(C(=O)O)cc1)Nc1cccc2ccccc12	8%	-13%	-2.0	-4%	-1%	-3%	-9%
27	CCOC(=O)c1cc(C#N)c(N2CCCCC2)nc1-c1ccccc1	-5%	-1%	-0.2	13%	·	-5%	-16%
28	CN(CC(=O)Nc1cccc(F)c1)C(=O)c1cccnc1Sc1ccc(Cl)cc1	15%	-1%	-3.4	12%	-1%	-7%	-3%
29	COc1ccc2nc(SCC(=O)Nc3ccc(S(=O)(=O)Nc4nccc(C)n4)cc3)[nH]c2c1	-2%	-3%[57.1 µM]	1.3	5%	0%	-6%	-20%
30	Cc1ccc(NC(=O)CSc2ncc3ccccn23)cc1	4%	13%	-4.3	-1%	-2%	-2%	-24%
31	CCn1c2ccccc2c2cc(NC(=O)CSc3nccc(=O)[nH]3)ccc21	4%	2%	-7.9	1%	0%	-14%	-10%
32	N#Cc1c(NC(=O)CSc2nnc(-c3ccco3)n2-c2ccccc2)sc2c1CCC2	2%	5%	-1.5	9%	-2%	17µM*	-30%[57.1 µM]
33	C=CCn1c(CNC(=O)c2ccccc2F)nnc1SCc1nc2ccccc2c(=O)[nH]1	21%	?	1.1	-1%	1%	-1%	-7%
34	CCN(CC)C(=O)CSC(Nc1ccc(F)cc1)=C(C#N)C#N	-20%	-2%	0.2	8%	-7%	8%	-16%
35	CCOc1ccc(OCCC(=O)N2CCc3cc(OC)c(OC)cc3C2)cc1	-9%	0%	0.4	7%	1%	-5%	6%
36	O=C(OCC(=O)N1CCCC1=O)c1cc(S(=O)(=O)N2CCOCC2)ccc1F	2%	19%	-1.6	-1%	0%	-1%	-4%
37	CC(C)(C)c1ccc(OCC(=O)NNC(=O)c2cccnc2)cc1	-2%	-6%	-4.6	4%	2%	-18%	-8%
38	O=C(NCCNC(=O)c1cccs1)c1ccco1	13%	12%	0.3	-1%	-2%	-5%	1%
39	Nc1nc(-c2ccccc2)c(CCCNc2ccccc2)c(=O)[nH]1	-3%	-8%	1.0	5%	·	0%	-12%
40	COc1ccc(Cl)cc1NC(=O)CNCc1cccs1	2%	?	-0.1	6%	3%	-1%	0%
41	Cc1ccc(CNc2nc3ccc(C)cc3n3cnnc23)cc1	-3%	9%	1.2	5%	0%	-4%	-3%
42	COc1ccc(Cl)cc1NC(=O)C1CC(=O)N(c2ccc(F)cc2)C1 (stereo unspecified)	7%	0%[57.1 µM]	1.3	1%	0%	-7%	4%
43	CCn1c(COc2ccc(Cl)cc2)nnc1SCC(=O)Nc1ccc2c(c1)OCO2	6%	-6%	-2.2	-7%	3%	-8%	0%
44	Oc1ccc(-c2nncn2-c2ccccc2)cc1	11%	1%	0.5	-2%	2%	3%	5%
45	O=C(c1cccs1)N(c1ccc(F)cc1)C1C=CS(=O)(=O)C1 (stereo unspecified)	6%	-3%	-1.6	-6%	?	-12%	-3%
46	COc1cc(OC)cc(C(=O)NCC(=O)OCC(=O)N2c3ccccc3NC(=O)C2(C)C)c1	-14%	-6%	3.1	0%	3%	-16%	0%
47	CCCc1cc(=O)[nH]c(SCC(=O)NCCCC(=O)OCC)n1	-18%	-5%	-3.3	-12%	1%	-9%	-6%
48	O=C(O)c1cc(-c2cc3ccccc3o2)nn1-c1ccccc1	8%	-16%	-1.3	-1%	-4%	-7%	-3%
49	COc1ccc(NC(=O)c2sc3nc(-c4cccnc4)ccc3c2N)cc1	10%	7%	-1.1	13%	-6%	-18%	-7%
50	N#Cc1ccc(OCC(=O)Nc2nc(-c3ccccn3)cs2)cc1	-3%	28%	0.1	0%	·	8.4µM*	-2%[11.6 µM]
51	CCOC(=O)CNC(=O)CSc1nnc(COc2ccc(Cl)cc2)n1CC	13%	0%	1.9	-6%	2%	-3%	-3%
52	CC(=O)N(Cc1cc(=O)[nH]c2ccccc12)c1cccc(C)c1	-3%	0%	1.4	6%	?	-4%	-9%
53	O=C(Cc1cccs1)Nc1ccc(S(=O)(=O)N2CCCCC2)cc1	?	4%	-0.6	6%	-27%	-13%	?
54	Cc1ccc(SCc2cc(=O)n3[nH]cnc3n2)cc1	17%	0%	-1.2	-6%	1%	-6%	0%
55	COc1cc2c(cc1OC)CN(C(=O)c1ccccc1C(=O)O)CC2	18%	6%	-1.0	4%	-1%	-13%	7%
56	COc1cc2c(cc1OC)-c1cc(Nc3ccc(C)cc3)nc(=O)n1CC2	-23%	-12%	-0.1	-4%	-1%	-5%	-16%
57	O=[N+]([O-])c1cccc(-n2nncc2-c2ccccc2)c1	8%	1%	0.2	11%	2%	-6%	1%
58	NS(=O)(=O)c1ccc(NC(=O)c2ccc3c(c2)CCCC3)cc1	-12%	8%	-2.4	-9%	-16%	-7%	3%
59	CCn1c(COc2ccc(C(C)C)cc2)nnc1SCC(=O)Nc1nccs1	-14%	-2%[57.1 µM]	-4.4	5%	1%	-9%	4%
60	CS(=O)(=O)N(CC(N)=O)c1ccc2c(c1)OCO2	8%	3%	-2.7	-13%	-1%	-3%	0%
61	COc1cc2c(cc1OC)CN(C(=O)COc1ccccc1C#N)CC2	-1%	-5%	1.1	12%	-4%	-13%	0%
62	O=C(Cn1cnc(S(=O)(=O)N2CCCCC2)c1)NCc1ccco1	-2%	4%	0.8	-8%	-3%	-2%	9%
63	CCCc1cc(=O)[nH]c(SC(CC)C(=O)Nc2ccccc2C#N)n1 (stereo unspecified)	-6%	0%	0.7	7%	1%	0%	-10%

An excerpt from above, showing only EPAC1 antagonist and PLK1 PBD inh.
| nr | structure | EPAC1 antagonist | PLK1 PBD inh |
| --- | --- | --- | --- |
| 56 | COc1cc2c(cc1OC)-c1cc(Nc3ccc(C)cc3)nc(=O)n1CC2 | -23% | -5% |
| 57 | O=[N+]([O-])c1cccc(-n2nncc2-c2ccccc2)c1 | 8% | -6% |
| 58 | NS(=O)(=O)c1ccc(NC(=O)c2ccc3c(c2)CCCC3)cc1 | -12% | -7% |
| 59 | CCn1c(COc2ccc(C(C)C)cc2)nnc1SCC(=O)Nc1nccs1 | -14% | -9% |
| 60 | CS(=O)(=O)N(CC(N)=O)c1ccc2c(c1)OCO2 | 8% | -3% |

3 entries already listed, arranged by formula weight, ascending:
item	compound	EPAC1 antagonist	EPAC2 antagonist	CCT chaperon mod	EPAC1 agonist	MmCpn inh	PLK1 PBD inh	WRN inhibitor
40	COc1ccc(Cl)cc1NC(=O)CNCc1cccs1	2%	?	-0.1	6%	3%	-1%	0%
63	CCCc1cc(=O)[nH]c(SC(CC)C(=O)Nc2ccccc2C#N)n1 (stereo unspecified)	-6%	0%	0.7	7%	1%	0%	-10%
51	CCOC(=O)CNC(=O)CSc1nnc(COc2ccc(Cl)cc2)n1CC	13%	0%	1.9	-6%	2%	-3%	-3%

Screening data (PubChem)

The list is partial; rates above refer to the full screens.
